# Screening results deposited in PubChem BioAssay by National Center for Advancing Translational Sciences (NCATS).
# VDR inh: inhibitors of human vitamin D receptor; Potency, µM, without a hit: max response, negative = inhibition, usual class: inhibitors; AID 504847; VDR-SRC2-3 peptide fluorescence polarization, 2 h; P11473; actives 0.93% (n = 400,000); active means well fitted inhibition curve with a large enough effect; inconclusive means small, poorly fitted or top-dose-only effect, or another doubt; inactive means no such curve, though single readings can be large or run the other way; further: series mostly up to about 120 µM
# Target sequence (P11473 whole entry, looked up): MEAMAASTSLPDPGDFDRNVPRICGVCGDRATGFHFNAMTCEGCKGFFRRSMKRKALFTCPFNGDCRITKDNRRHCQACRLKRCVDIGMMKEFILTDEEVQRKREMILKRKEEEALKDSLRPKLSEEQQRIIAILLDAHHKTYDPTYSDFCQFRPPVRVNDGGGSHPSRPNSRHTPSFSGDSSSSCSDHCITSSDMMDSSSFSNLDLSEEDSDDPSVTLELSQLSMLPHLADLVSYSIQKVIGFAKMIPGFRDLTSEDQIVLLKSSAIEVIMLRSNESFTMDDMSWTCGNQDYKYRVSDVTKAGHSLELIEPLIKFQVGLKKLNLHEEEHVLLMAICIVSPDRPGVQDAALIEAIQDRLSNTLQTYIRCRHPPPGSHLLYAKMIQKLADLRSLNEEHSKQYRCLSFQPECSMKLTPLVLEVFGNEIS
#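 FP read-out; VDR + SRC2-3 coactivator peptide; 23 nl compound by pintool; 2 h RT incubation; reagents held at 4 deg C, protected from light.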
# * hit, by the source's call; ? = inconclusive; & = joins results of further samples. On the % scale 0 is the no-effect control and ±100 the full control effect; potency means the concentration at half of the fitted maximal effect. These rows are one share of the data; rates above refer to the full screens.
# A first look, five compounds:
Structure,VDR inh
COc1cccc(N2CCN(C(=O)c3cc4cc(Cl)ccc4[nH]3)CC2)c1,7%
C=CCN(c1ccccc1)S(=O)(=O)c1ccc(Cl)c(C(=O)OCC(=O)NCCCN2CCCC2=O)c1,10%
O=C(/C=C/c1cccc(Br)c1)NCc1ccncc1,-1%
Cc1cnc(C)c(N(C)NC(=S)Nc2ccccc2)n1,-25%
O=c1c2ccccc2[nH]c(=S)n1C1CCCCC1,3%

# The list itself, from the start:
Structure,VDR inh
COc1cccc(N2CCN(C(=O)c3cc4cc(Cl)ccc4[nH]3)CC2)c1,7%
C=CCN(c1ccccc1)S(=O)(=O)c1ccc(Cl)c(C(=O)OCC(=O)NCCCN2CCCC2=O)c1,10%
O=C(/C=C/c1cccc(Br)c1)NCc1ccncc1,-1%
Cc1cnc(C)c(N(C)NC(=S)Nc2ccccc2)n1,-25%
O=c1c2ccccc2[nH]c(=S)n1C1CCCCC1,3%
Cc1ccc(C(=O)N/C(=C/c2ccco2)C(=O)NCCc2c[nH]c3ccccc23)cc1,-30%
COC(CNC(=O)c1ccc(CS(=O)(=O)c2ccc(Br)cc2)o1)OC,-11%
COc1ccc2c(c1)O[C@H](c1ccc3c(c1)OCO3)[C@@H](OC(=O)Nc1cc(OC)c(OC)c(OC)c1)C2=O,7%
CCOc1cccc(C(=O)Nc2ccc3[nH]ncc3c2)c1,-16%
C=CCSc1nc(-c2ccccc2)c2cc(Cl)ccc2n1,13%
O=c1cc(CN2CCOCC2)c2cc(Cl)c(O)cc2o1,?
OCCCNc1nc(-c2ccccc2)c2cc(Cl)ccc2n1,-8%
CCOC(=O)c1c(C)[nH]c(CCC(=O)NCc2ccc(N(C)C)cc2)c1C,18%
COc1cccc(NS(=O)(=O)c2c(C)cc(C)cc2C)c1,-1%
COc1ccc(NC(=O)CSc2nnnn2C)c([N+](=O)[O-])c1,18%
COc1ccc(CCNC(=O)CCn2c(=O)c3ccccc3n(Cc3ccccc3F)c2=O)cc1OC,3%
CN(C)c1cccc(C(=O)N/N=C/c2ccccc2F)c1,-5%
Cc1ccc(CN(C(=O)COc2cc(C)c(Cl)c(C)c2)c2ccccn2)o1,13%
O=C(Nc1ccc(Oc2ccccc2)nc1)C1CCCCN1Cc1cccc(O)c1 (stereo unspecified),7%
COC(=O)CSc1nnc2c3c4c(sc3nc(-n3nc(C)cc3C)n12)COC(C)(C)C4,-7%

# The final 2 compounds of the section before open the next one:
Structure,VDR inh
O=C(Nc1ccc(Oc2ccccc2)nc1)C1CCCCN1Cc1cccc(O)c1 (stereo unspecified),7%
COC(=O)CSc1nnc2c3c4c(sc3nc(-n3nc(C)cc3C)n12)COC(C)(C)C4,-7%
O=C(CNC(=O)N1CC(=O)Nc2ccccc21)Nc1nccs1,2%
COc1cccc(OC)c1OCCCSc1nc(C)cc(=O)[nH]1,16%
Cc1ccc(-n2c(Cc3ccccc3)nnc2SCc2nc(-c3cccs3)no2)cc1C,9%
CN(C(=O)CSc1nnnn1-c1ccccc1)C1CCCCC1,13%
Cc1ccccc1NC(=S)NNC(=O)c1cccc(Br)c1,-7%
CCCC(=O)NC(=S)Nc1nc(-c2ccc(OC)cc2)cs1,-14%
Cc1c(NC(=O)CN2CC(C)OC(C)C2)c(=O)n(-c2ccccc2)n1C (stereo unspecified),-1%&3%
COc1cccc(C(=O)N(Cc2cccc(F)c2)C2CCS(=O)(=O)C2)c1 (stereo unspecified),12%
CCOC(=O)NC1(C(F)(F)F)C(=O)NC(C)=C1C#N (stereo unspecified),-7%
CCCC(=O)Nc1ccc(NC(=O)c2ccccc2)nc1,-7%
CC(=O)Nc1ccc(S(=O)(=O)NCCC(=O)NCCCc2ccccc2)cc1,1%
COCCN(C(=O)c1cc(-c2ccccc2Cl)nc2ccccc12)c1c(N)n(CC(C)C)c(=O)[nH]c1=O,-12%
CC(C)=CC1C(C(=O)NCCOc2ccccc2)C1(C)C (stereo unspecified),-5%
CCCN1CCN(C(=O)C2CCN(S(=O)(=O)c3ccc4c(c3)oc(=O)n4C)CC2)CC1,18%
CCS(=O)(=O)N1Cc2ccccc2CC1C(=O)Nc1cc(S(C)(=O)=O)ccc1Cl (stereo unspecified),19%
Cc1cc(NC(=O)CSc2nc3ccccc3[nH]2)n(-c2ccccc2)n1,-6%
CCN(CC)S(=O)(=O)c1ccc2c(c1)c(=O)c(C(=O)NCc1ccccc1OC)cn2C,-13%
CCN(CC)c1cc2c(cc1F)c(=O)c(S(=O)(=O)c1cc(C)ccc1C)cn2Cc1ccccc1,6%
O=C(Nc1ccccc1)C1CC(=O)n2c(nc3ccccc32)N1 (stereo unspecified),-29%
CC(=O)N1CCc2c(sc3nc(SCC(C)C)n(-c4ccc(F)c(Cl)c4)c(=O)c23)C1,-6%

# Later entries.
Structure,VDR inh
O=C(CN(C(=O)c1csnn1)c1cccc(C(F)(F)F)c1)NC1CCCC1,-5%
CCOc1ccccc1NC(=S)Nc1ccc(S(N)(=O)=O)cc1,2%
COCCn1c(-c2ccc(OC)cc2)cnc1N,22%
Nc1nnc(SCC(=O)Nc2nnc(-c3ccccc3)o2)s1,-12%
N#C/C(=C\c1ccc(-c2cccc([N+](=O)[O-])c2)o1)C(=O)N1CCOCC1,-7%
CCOC(=O)c1[nH]c(C)c(C(=O)OCc2ccc(C)cc2)c1C,-15%
NCCOB(c1ccccc1)c1ccccc1,14µM*
N#Cc1c(N)nc2c(c1-c1ccncc1)CCCC2,-22%
CCN1CCN(CCCNC(=O)c2cnn(-c3ccc(C)cc3C)c2C2CCN(C(=O)OC(C)(C)C)CC2)CC1,4%
COc1ccccc1-c1cc(-c2ccccc2)nc(SCC(=O)O)c1C#N,-14%
CCOc1ccc(NC(=O)CSc2ncn[nH]2)cc1,-13%&2%
COc1ccc(N2C(=O)CC(c3ccccc3)CC2=O)cc1,3%
CC1(C)C(O)=C(c2nc3ccccc3[nH]2)C(=N)N1c1ccccc1,9%
CCCCN(c1ccccc1)c1ncnc2c1cnn2-c1ccc(Cl)cc1,-11%
COc1c(Cl)cc(-c2noc(C)c2C(=O)NC(C)C)cc1Cl,5%
CC(=O)c1cccc(OCC(=O)N(C)CC(=O)NCc2ccco2)c1,7%
CN(C)S(=O)(=O)c1ccc(NC(=O)c2cc3ccccc3o2)cc1,10%
CCOC(=O)CC1C(=O)NCCN1C(=O)Nc1ccccc1 (stereo unspecified),-8%
COc1ccc(CN2CCN(C(C)C)C(CCO)C2)cc1Cn1cncn1 (stereo unspecified),-19%
CC1Sc2ccc(S(=O)(=O)N3CCC(C(=O)NCC(C)c4ccccc4)CC3)cc2NC1=O (stereo unspecified),-13%

# Continued.
Structure,VDR inh
COc1ccc(N(CC(=O)Nc2cccc(N(C)S(C)(=O)=O)c2)S(=O)(=O)c2ccc(C)cc2)cc1,7%
CCCCNC(=S)NCCN1CCCCC1,0%
CON(C)c1nc(C2CCCCC2)c2cc(C)ccc2n1,-2%
Cc1ccc(NCc2cc3cc4c(cc3n(CC(=O)Nc3ccc(C)cc3)c2=O)OCCO4)cc1,5%
Oc1c(Br)cc(C=Nc2ccc3nc(-c4ccccc4)[nH]c3c2)c(O)c1Br,-2%
Cc1ccc2c(c1)C(c1ccccc1)N(C(=O)c1ccc(OC(C)C)cc1)CC(=O)N2 (stereo unspecified),-1%
COc1ccc(Nc2nc(C)cc(C)c2C#N)c(OC)c1,9%
CCN(Cc1nc2ccccc2c(=O)[nH]1)C(=O)COc1ccccc1-c1ccccc1,-4%
O=C(CN(Cc1ccccc1)C(=O)CCC(=O)Nc1nccs1)NCc1ccccc1,0%
CCOC(=O)c1ccccc1NC(=O)Nc1cc2c(cc1N1CCCC1)n(C)c(=O)n2C,-6%
OC(CNCc1ccc(-c2ccccc2)cc1)c1ccccc1 (stereo unspecified),7%
COc1ccc(C(=O)c2c(C)c3cc(C)ccc3n2CC(O)CN2CCOCC2)cc1 (stereo unspecified),12%
C[n+]1cnn2c1SCC1(COC1)C2,1%
CC(C)(C)c1ccc(-n2nc(C(N)=O)c(O)cc2=O)cc1,?
Cc1ccc(-n2ncc(C(=O)N3CCc4ccccc4C3)c2C2CCN(C(=O)OC(C)(C)C)CC2)cc1C,7%
COc1cccc(OC)c1C(=O)Nc1ccc(C(=O)c2ccncc2)cc1,-5%
Cc1ccccc1C(=O)NCC(=O)NC1CC1,-13%
CCCCn1c(N)c(N(CCC(C)C)C(=O)COC(=O)Cc2ccc(Cl)cc2)c(=O)[nH]c1=O,4%
Cc1c(C(=O)N(Cc2ccccc2)Cc2cccs2)cnn1-c1ccc(Cl)cc1,4%
O=C1CN(C(=O)CN2CCCC2)C(c2ccccc2)c2cc(Br)ccc2N1 (stereo unspecified),11%

# Next section.
SMILES | VDR inh
Cc1csc(C(C)N(C)C(=O)CCc2nnc(CCc3ccccc3)o2)n1 (stereo unspecified) | -3%
Cc1ccc(N(Cc2cc3ccc(C)cc3[nH]c2=O)C(=O)c2ccco2)cc1 | ?
COc1ccc(N2CCN(S(=O)(=O)c3ccc4c(c3)CC(C)N4C(=O)C3CC3)CC2)cc1 (stereo unspecified) | 6%
O=C(c1cccs1)N1CCCC(c2nc3c(nnn3Cc3ccccc3)c(=O)[nH]2)C1 (stereo unspecified) | 8%
Cc1ccc(NC(=O)CSc2nccn2C2CCCC2)cc1Cl | 23%
CCC(=O)NC(=S)Nc1ccc(NC(=S)NC(=O)c2ccc(C)cc2)cc1 | 3%
O=C(CSc1nc2c([nH]c3ccccc32)c(=O)n1-c1ccc(F)cc1)NC1CCCCC1 | 9%
COc1ccc(CN2C(=O)c3ccccc3C(/C=N\OCc3ccc(C)cc3)C2=O)cc1 (stereo unspecified) | 3%
O=c1[nH]c2ccccc2c2nc3ccccn3c12 | -4%
c1cc2c(cc1-c1[nH]ncc1CN1C[C@H]3CC[C@H]1C3)OCO2 | 15%
Cc1cccc(NC(=O)[C@H](C)NC(=O)[C@@H]2Cc3ccccc3CN2C(=O)OC(C)(C)C)c1 | -8%
O=C(NCC(=O)N1CC=C(c2ccccc2)CC1)c1ccco1 | -3%

# More records:
SMILES | VDR inh
CC(C)NC(=O)CSc1nc2ccccc2n1CC(=O)N(C(C)C)C(C)C | -7%
Cn1cccc1CNC(=S)Nc1ccccc1F | -15%
COc1cc(/C=N/n2cnnc2)ccc1OC(=O)c1cccnc1 | ?
CCOC(CNC(=O)c1ccc2c(c1)ncn2-c1ccc(F)c(F)c1)OCC | 3%
Cc1cc(OCC(=O)NCCO)ccc1Cl | 0%
Cc1ccc2c(c1)C(c1ccc(N3CCOCC3)cc1)=NNC(c1cccs1)=N2 | 14%
O=C(CN1CCOC1=O)N1CCCC(N2CCN(c3cccc(C(F)(F)F)c3)CC2)C1 (stereo unspecified) | -6%
O=C1N=c2ccccc2=C1c1sc(=S)n(NC(=O)c2cccc(O)c2)c1O | -22%
O=C(c1ccccn1)N1N=C2/C(=C/c3ccccc3)CCCC2C1c1ccccc1 (stereo unspecified) | -9%
Cc1cccc(CNC(=O)CCCN2C(=O)CCn3nc(-c4cccn4C)cc32)c1 | 0%
CC(=O)c1c(C)[nH]c(C(=O)NCc2ccccn2)c1C | 2%
CC1CC(C)CN(C(=S)Nc2ccc(SC(F)F)cc2)C1 (stereo unspecified) | -12%

# Other structures follow.
SMILES | VDR inh
Cc1cccc(S(=O)(=O)Nc2nc3ccccc3nc2NCc2ccc3c(c2)OCO3)c1 | -16%
COc1ccc2cc(CN(CCCN3CCOCC3)Cc3nnnn3C3CCCC3)c(=O)[nH]c2c1 | 7%
CCN(C(=O)COC(=O)c1cccnc1)c1cccc2ccccc12 | 4%
CCN(CC)C(=O)C1CCN(S(=O)(=O)c2ccc(C3CNC(=O)C3)cc2)CC1 (stereo unspecified) | -19%
CSCCC(NC(=O)c1ccccc1)C(=O)N1CCN(C(=O)c2ccccc2)CC1 (stereo unspecified) | 20%
Cc1ccc(CNC(=O)c2coc(=O)c3ccccc23)o1 | -15%
O=C(c1ccc(F)cc1)N1CCCC(N2CCN(Cc3ccc4c(c3)OCO4)CC2)C1 (stereo unspecified) | 24%
Cc1c(N=C2N=C(NC(=O)c3ccc(F)cc3)c3ccccc32)c(=O)n(-c2ccccc2)n1C | 11%
CCN(C(=O)COC(=O)c1ccc(=O)n(Cc2ccccc2)n1)C1CCCCC1 | -3%
COc1cccc(C(=O)N(C)Cc2c(C)nn(C3CCS(=O)(=O)C3)c2C)c1 (stereo unspecified) | 5%
CCC1Nc2ncnc(N3CCOCC3)c2N(Cc2ccc(Cl)cc2)C1=O (stereo unspecified) | -20%
CC1CCN(c2c([N+](=O)[O-])nn(-c3ccc4c(c3)OCCO4)[n+]2[O-])CC1 | 1%

# A draw from above in order of heavy-atom count, rising.
SMILES | VDR inh
COc1cccc(C(=O)N(C)Cc2c(C)nn(C3CCS(=O)(=O)C3)c2C)c1 (stereo unspecified) | 5%
CCN(C(=O)COC(=O)c1ccc(=O)n(Cc2ccccc2)n1)C1CCCCC1 | -3%
O=C(c1ccc(F)cc1)N1CCCC(N2CCN(Cc3ccc4c(c3)OCO4)CC2)C1 (stereo unspecified) | 24%
Cc1c(N=C2N=C(NC(=O)c3ccc(F)cc3)c3ccccc32)c(=O)n(-c2ccccc2)n1C | 11%
COc1ccc2cc(CN(CCCN3CCOCC3)Cc3nnnn3C3CCCC3)c(=O)[nH]c2c1 | 7%

# Next section:
SMILES | VDR inh
Cc1nn(C)c2c1c(-c1ccccc1)cc(=O)n2Cc1ccccc1Cl | -16%
COC(=O)c1ccccc1S(=O)(=O)N1CCCC(c2nc3c(nnn3Cc3ccc(C)cc3)c(=O)[nH]2)C1 (stereo unspecified) | -11%
COC(=O)c1ncccc1SC | -15%
COc1cc(C(C)=O)ccc1Oc1ccc(S(=O)(=O)N2CCOCC2)cn1 | -15%
CCc1cc2c(=O)c(-n3cnc4ccccc43)coc2cc1O | 10%
O=C(NCc1n[nH]c(=S)n1-c1ccc(Cl)c(Cl)c1)c1ccc(S(=O)(=O)N2CCCCC2)cc1 | 9%
CCCCCCN1Cc2ccccc2C1 | 6%
O=S(=O)(c1ccc(Cl)cc1)N1CCn2c1nc1ccccc12 | -5%
Cn1cnnc1Sc1c([N+](=O)[O-])ncn1C | -8%
c1ccc(-c2nc(-c3cccc4ccccc34)c(NC3CCCCC3)o2)cc1 | -23%
